# Screens as filed in PubChem BioAssay.
# AF4-AF9 inh – blocks AF4 peptide binding to human AF9. P42568. AlphaScreen, biotin-AF4 peptide binding to FLAG-AF9. inhibition, % at 10 µM. actives 0.47% (n = 350,000);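 active = every replicate reaching a set inhibition limit, whatever the replicate mean, cut at about 25% in these data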;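 note: 0% = plate neutral control median and 100% = total signal loss; the record names both 10 and 1 µM as test concentration; the first replicate is given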
# Target sequence (P42568 whole entry, looked up): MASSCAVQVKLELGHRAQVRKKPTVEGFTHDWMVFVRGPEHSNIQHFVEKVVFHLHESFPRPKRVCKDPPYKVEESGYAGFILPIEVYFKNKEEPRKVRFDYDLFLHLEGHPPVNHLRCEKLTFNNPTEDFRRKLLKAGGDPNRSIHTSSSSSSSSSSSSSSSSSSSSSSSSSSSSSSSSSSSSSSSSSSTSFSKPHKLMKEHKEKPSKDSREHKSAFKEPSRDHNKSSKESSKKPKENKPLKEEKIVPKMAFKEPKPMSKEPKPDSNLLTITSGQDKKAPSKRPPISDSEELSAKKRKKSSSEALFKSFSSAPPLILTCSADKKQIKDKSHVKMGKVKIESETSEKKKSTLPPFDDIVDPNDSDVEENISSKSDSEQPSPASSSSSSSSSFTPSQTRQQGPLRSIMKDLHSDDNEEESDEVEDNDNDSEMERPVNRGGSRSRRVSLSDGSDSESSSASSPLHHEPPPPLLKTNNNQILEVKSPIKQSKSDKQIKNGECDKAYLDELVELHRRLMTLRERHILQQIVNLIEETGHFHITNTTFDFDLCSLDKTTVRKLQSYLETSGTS
# Ecoli rRNA inh – selective bacterial rRNA inhibition in E. coli; GFP signal change (wild-type ribosome), % (concentration not given with the values); AID 720706; actives 1.6% (n = 350,000); E. coli WT GFP vs humanized-ribosome RFP mutants, fluorescence, 24 h; active compounds read low; DMSO median 0, no signal -100;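 active = significant combined selectivity score with lowered wild-type GFP, culture density cut under 30%, mutant RFP and density less affected; inactive = any of these conditions unmet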; note: one replicate is shown; some compounds called inactive have numbers as strong as hits
# FGF22 binding – FGF22 (human) thermal shift binding; Q9HCT0; recombinant FGF22 thermal shift, SYPRO orange fluorescence; percent of sucrose octasulfate shift, DMSO zero; calls only at 9.99 µM; actives 1.5% (n = 340,000);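 active = melting point raised past a set limit in the mean and every replicate; three in four hits are not shown here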
# Target sequence (Q9HCT0 whole entry, looked up): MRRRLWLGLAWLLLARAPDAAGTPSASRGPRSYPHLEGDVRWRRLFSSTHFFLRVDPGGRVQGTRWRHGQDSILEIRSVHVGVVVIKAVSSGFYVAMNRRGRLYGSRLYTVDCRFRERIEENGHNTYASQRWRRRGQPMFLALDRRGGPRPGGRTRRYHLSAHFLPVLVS
# Ecoli rRNA inh OD600 – recorded beside Ecoli rRNA inh, whose call it bears; OD600 change, %; measured here: OD600 growth;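 optical density of the mix in the first replicate; 0 = DMSO median and -100 = no signal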
# Ecoli rRNA inh RFP – second read-out of Ecoli rRNA inh, no call of its own (marks repeat the call); RFP signal change, %; measured here: RFP humanized mutant strains;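 first replicate; 0 = DMSO median and -100 = no signal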
# * hit, by the source's call; i = inactive; + = active, no number; & = joins results of further samples. This is a subset, so the mix of outcomes need not match the whole.
SMILES,AF4-AF9 inh,Ecoli rRNA inh,Ecoli rRNA inh OD600,Ecoli rRNA inh RFP,FGF22 binding
C[C@@H]1CCCCO[C@H](CN(C)C(=O)CCCN(C)C)[C@@H](C)CN([C@H](C)CO)C(=O)c2cc(NC(=O)c3ccccc3)ccc2O1,-2.4,-4,17,-4.6,i
Cc1ccc(S(=O)(=O)N(C)C[C@H]2Oc3ncc(Br)cc3C(=O)N([C@@H](C)CO)C[C@H]2C)cc1,0.5,2,-1,-2.3,+
COC(=O)c1ccc2nc(-c3ccc(F)cc3)c(Cc3ccsc3)n2c1,-0.2,-1,-12,2.0,i
COC(=O)[C@H]1[C@H](CO)[C@H]2Cn3c(ccc(/C=C/c4ccccc4)c3=O)[C@H]2N1C(=O)C1CCCC1,-6.5,-4,-8,3.3,i
FC(F)(F)c1nc2nccnc2[nH]1,-0.4,4,10,-1.1,i
O=C(Nc1ccccc1Cl)N1C[C@H]2[C@@H](c3ccccc31)[C@@H](CO)N2Cc1ccccc1,-0.1,-38*,-31*,2.7*,i
O=C(NCC1CC1)[C@H]1[C@H](CO)[C@H]2Cn3c(ccc(-c4cccnc4)c3=O)[C@@H]1N2C(=O)C1CC1,-0.5,3,7,-0.1,i
COc1ccc(NC(=O)Nc2ccc3c(c2)C(=O)N([C@H](C)CO)C[C@@H](C)[C@H](CN(C)S(=O)(=O)c2ccc(Cl)cc2)OCCCC[C@@H](C)O3)cc1,4.3,5,2,-3.7,i
C[C@@H]1CN([C@@H](C)CO)S(=O)(=O)c2ccc(Br)cc2O[C@H]1CN(C)S(C)(=O)=O,-0.9,-2,-9,-4.6,i
COc1ccc2c3c(n(C)c2c1)[C@H](CO)N(Cc1cc(F)ccc1F)CC31CN(C(=O)C2CC2)C1,-3.1,-6,-16,-0.6,i
CCN(C(=O)COC(=O)CCC(=O)c1ccc(C)cc1)c1c(N)n(Cc2ccccc2)c(=O)[nH]c1=O,2.3,5,18,2.2,i
CC(C)=CCn1c2ccc(NC(=S)NC3CC3)cc2c(=O)n1C,11,-2,4,2.1,i
Cc1ccc(CNC(=O)C2CCN(S(=O)(=O)N3CCC(C)CC3)CC2)cc1,-2.8,11,10,-1.6,i
CC(C)CC(N)c1csc(Nc2ccc(C(F)(F)F)cn2)n1 (configuration not stated),6.1,-59,-81,-21,i
CC(C)CC#Cc1ccc2c(c1)O[C@H](CN(C)C(=O)c1ccccc1)[C@H](C)CN([C@H](C)CO)S2(=O)=O,6.0,-3,-8,1.4,i
CCCC(=O)N1CC2(C1)CN(C(=O)C1CCCC1)[C@@H](CO)c1[nH]c3cc(OC)ccc3c12,-0.6,-1,6,-1.5,i
COc1ccccc1C#Cc1ccc([C@@H]2[C@H]3CN(S(C)(=O)=O)CCCCN3[C@H]2CO)cc1,-1.6,-12,-48,21,i
C[C@@H]1CCCCO[C@H](CN(C)C(=O)CCCN(C)C)[C@@H](C)CN([C@H](C)CO)C(=O)c2cc(NS(=O)(=O)c3cn(C)cn3)ccc2O1,1.8,3,9,-1.7,i
O=C(c1cccc(F)c1)N1CCCCN2[C@@H](CO)[C@@H](c3ccc(C#CC4(O)CCCC4)cc3)[C@@H]2C1,2.0,-1,2,-3.6,i
COc1ccccc1Cc1c(-c2ccc(C)cc2)nc2c(C)cc(Br)cn12,-0.1,-10,-26,36,i
Cc1ccc(F)cc1C(=O)N1CCCC(c2cc(C(=O)NCc3ccccc3)no2)C1 (configuration not stated),0.2,-3,-21,-1.5,i
COCCNC(=O)C1(C)CCN(Cc2ccc(C(C)C)cc2)C1 (configuration not stated),0.7,8,4,1.4,i
C[C@H](CO)N1C[C@H](C)[C@@H](CN(C)C(=O)c2cccnc2)Oc2ncc(-c3ccc(C#N)cc3)cc2C1=O,-1.7,0,4,-3.0,i
COCC#Cc1ccc2c(c1)O[C@@H](CN(C)Cc1ccc(F)cc1)[C@@H](C)CN([C@@H](C)CO)S2(=O)=O,6.0,-7,3,-5.2,i
Cc1ccc(S(=O)(=O)Nc2cccc3c2O[C@H](CN(C)S(=O)(=O)c2ccccc2)[C@H](C)CN([C@H](C)CO)C3=O)cc1,-1.6,2,4,-1.5,i
COCC(=O)N(C)C[C@@H]1Oc2cc(-c3ccccc3)ccc2S(=O)(=O)N([C@@H](C)CO)C[C@H]1C,-3.3,-1,-20,0.1,i
CO[C@@H]1CN(C)C(=O)c2cc(NC(=O)Nc3ccccc3)ccc2OC[C@H](C)N(C(=O)CN(C)C)C[C@@H]1C,5.5,0,3,-3.0,i
COC(=O)C[C@@H]1C[C@H]2c3cc(NC(=O)C4CCOCC4)ccc3O[C@H]2[C@H](CO)O1,-5.7,2,-3,-1.1,i
COCC(=O)NC[C@H]1N[C@H](CO)[C@H]1c1ccc(-c2ccccc2F)cc1,0.9,-1,-1,0.9,i
CCC(=O)N(C)C[C@@H]1Oc2cc(Br)ccc2S(=O)(=O)N([C@H](C)CO)C[C@@H]1C,-1.2,-1,-3,-2.1,i
COc1ccc(NC(=O)Nc2ccc3c(c2)C(=O)N([C@@H](C)CO)C[C@H](C)[C@@H](CN(C)C(=O)Nc2ccc4c(c2)OCO4)OCCCC[C@H](C)O3)cc1,7.8,-2,0,-1.7,i
COc1ccc(Nc2nnc(SCC(=O)NC3CCS(=O)(=O)C3)s2)cc1 (configuration not stated),0.1,1,-1,0.5,i
C[C@H](CO)N1C[C@H](C)[C@H](CN(C)Cc2ccncc2)Oc2ncc(C#Cc3ccc(C(F)(F)F)cc3)cc2C1=O,3.4,-2,1,-5.6,i
C[C@H]1CN([C@@H](C)CO)C(=O)c2cccc(NC(=O)Nc3ccc(F)cc3)c2O[C@@H]1CN(C)Cc1ccc2c(c1)OCO2,6.5,-5,-14,-1.7,i
Cc1ccc(S(=O)(=O)Nc2ccc3c(c2)C(=O)N([C@H](C)CO)C[C@@H](C)[C@H](CN(C)C(=O)Nc2ccc(C(F)(F)F)cc2)OCCCC[C@@H](C)O3)cc1,-4.4,2,-8,-0.7,i
COc1ccccc1S(=O)(=O)N(C)C[C@@H]1Oc2cc(C#CCC3CCCC3)ccc2S(=O)(=O)N([C@@H](C)CO)C[C@@H]1C,1.2,11,14,-0.5,i
CNC[C@H]1Oc2ccc(NC(=O)C3CC3)cc2C(=O)N([C@H](C)CO)C[C@H]1C,1.6,4,24,2.2,i
COc1ccc(C[C@@H]2CCc3cnnn3COC[C@H](c3ccccc3)NC2=O)cc1,1.3,-2,-2,-1.3,i
O=[N+]([O-])c1ccc(S(=O)Cc2ccccc2)c([N+](=O)[O-])c1 (configuration not stated),0.4,15,12,-0.6,i
CN(C)C(=O)c1cccc(-c2ccc3c(c2)[C@@H]2[C@@H](CCN2Cc2nccs2)[C@@H](CO)N3)c1,-1.5,9,-6,-4.0,i
C[C@@H]1CN([C@@H](C)CO)C(=O)c2cc(NC(=O)c3ccncc3)ccc2O[C@H]1CN(C)Cc1ccc(C(F)(F)F)cc1,-3.4,-6,-9,1.2,i
O=Cc1ccc(N2CCN(S(=O)(=O)c3ccc4c(c3)CC(=O)N4)CC2)cc1,0.9,-1,16,-0.1,i
CCCCC(=O)NC(c1ccc(OC)c(OC)c1)c1ccc2cccnc2c1O (configuration not stated),7.6,5,16,-2.3,i
O=C(C[C@H]1CC[C@H]2[C@@H](COC[C@@H](O)CN2S(=O)(=O)c2cccc(F)c2)O1)Nc1ccc(-c2ccccc2)cc1,-0.2,1,-19,12,+
C[C@@H]1CN([C@H](C)CO)S(=O)(=O)c2ccc(C3=CCCCC3)cc2O[C@H]1CN(C)Cc1cncnc1,-0.1,-5,-12,6.5,i
CC1(C(=O)NS(=O)(=O)C2CC2)CCCN(C(=O)c2ccco2)C1 (configuration not stated),-1.2,4,10,0.4,i
O=C(Nc1ncccc1O)c1ccc(Cl)c(S(=O)(=O)N2CCCC2)c1,2.0,8,0,3.7,i
C[C@H]1CN([C@@H](C)CO)C(=O)c2cccc(NC(=O)Nc3ccccc3)c2O[C@@H]1CN(C)S(=O)(=O)c1ccccc1,2.4,-4,-11,-0.2,i
O=C(Nc1ccccc1F)N[C@H]1CC[C@H](CCNC(=O)C2CCCCC2)O[C@@H]1CO,0.4,-6,-8,-1.4,i
Cc1noc(C)c1NC(=O)N(C)C[C@@H]1Oc2ccc(NC(=O)CCCCCC(=O)Nc3ccccc3N)cc2CC(=O)N([C@H](C)CO)C[C@@H]1C,1.7,3,5,-1.4,i
CCCC#Cc1cnc2c(c1)C(=O)N([C@@H](C)CO)C[C@@H](C)[C@@H](CN(C)C(=O)Nc1c(C)noc1C)O2,-3.6,7,7,1.1,i
C[C@@H]1CN([C@@H](C)CO)C(=O)c2cc(NC(=O)CCCCCC(=O)Nc3ccccc3N)ccc2O[C@@H]1CN(C)C,3.5,0,7,0.0,i
C[C@H]1CN([C@@H](C)CO)C(=O)Cc2cc(NC(=O)CCN3CCOCC3)ccc2O[C@@H]1CN(C)C(=O)Nc1ccc2c(c1)OCO2,-0.1,4,13,-2.8,i
C[C@H]1CN([C@@H](C)CO)C(=O)c2cc(-c3cccc(F)c3)cnc2O[C@@H]1CN(C)C(=O)c1cccc(F)c1,1.2,-10,-11,3.8,i
C[C@@H]1CN([C@H](C)CO)C(=O)CCCn2nncc2CO[C@H]1CN(C)Cc1ccccc1,-2.1&0.7,24&2,16&10,1.4&1.5,i
CN(C)c1ccc2c(c1)[C@@H]1C[C@@H](CC(=O)O)O[C@@H](CO)[C@@H]1O2,-1.6,6,12,0.8,i
CCC(=O)Nc1ccc2c(c1)OC[C@@H](C)N(Cc1ccncc1)C[C@H](C)[C@@H](OC)CN(C)C2=O,-5.8,-1,-3,-0.6,i
O=C(CSc1ccc(Br)cc1)NCC1(N2CCCCC2)CCCCC1,2.6,9,7,3.5,i
CC(C)NC(=O)Nc1ccc2c(c1)C(=O)N([C@H](C)CO)C[C@H](C)[C@@H](CN(C)C(=O)Nc1ccc3c(c1)OCO3)OCCCC[C@H](C)O2,-1.5,-2,2,-1.2,i
CN(C)CC(=O)Nc1ccc2c(c1)[C@@H]1C[C@@H](CC(=O)N3CCc4ccccc4C3)O[C@H](CO)[C@@H]1O2,1.4,3,4,-1.2,i
C[C@H](CO)N1C[C@H](C)[C@@H](CN(C)C(=O)Cc2ccccc2)Oc2ncc(C3=CCCCC3)cc2C1=O,0.1,-6,-6,6.2,i
CCCN1[C@@H]2Cn3c(cccc3=O)[C@H]1[C@@H](C(=O)N1CCCCC1)[C@@H]2CO,-1.0,2,10,1.0,i
COc1cc(CN2CC3(CN(C(=O)c4cccnc4)C3)c3c([nH]c4cc(OC)ccc34)[C@H]2CO)cc(OC)c1,-3.6,-1,-3,0.1,i

# Compounds above that have an aryl methoxy group (11):
SMILES,AF4-AF9 inh,Ecoli rRNA inh,Ecoli rRNA inh OD600,Ecoli rRNA inh RFP,FGF22 binding
COc1ccc(NC(=O)Nc2ccc3c(c2)C(=O)N([C@H](C)CO)C[C@@H](C)[C@H](CN(C)S(=O)(=O)c2ccc(Cl)cc2)OCCCC[C@@H](C)O3)cc1,4.3,5,2,-3.7,i
COc1ccc2c3c(n(C)c2c1)[C@H](CO)N(Cc1cc(F)ccc1F)CC31CN(C(=O)C2CC2)C1,-3.1,-6,-16,-0.6,i
CCCC(=O)N1CC2(C1)CN(C(=O)C1CCCC1)[C@@H](CO)c1[nH]c3cc(OC)ccc3c12,-0.6,-1,6,-1.5,i
COc1ccccc1C#Cc1ccc([C@@H]2[C@H]3CN(S(C)(=O)=O)CCCCN3[C@H]2CO)cc1,-1.6,-12,-48,21,i
COc1ccccc1Cc1c(-c2ccc(C)cc2)nc2c(C)cc(Br)cn12,-0.1,-10,-26,36,i
COc1ccc(NC(=O)Nc2ccc3c(c2)C(=O)N([C@@H](C)CO)C[C@H](C)[C@@H](CN(C)C(=O)Nc2ccc4c(c2)OCO4)OCCCC[C@H](C)O3)cc1,7.8,-2,0,-1.7,i
COc1ccc(Nc2nnc(SCC(=O)NC3CCS(=O)(=O)C3)s2)cc1 (configuration not stated),0.1,1,-1,0.5,i
COc1ccccc1S(=O)(=O)N(C)C[C@@H]1Oc2cc(C#CCC3CCCC3)ccc2S(=O)(=O)N([C@@H](C)CO)C[C@@H]1C,1.2,11,14,-0.5,i
COc1ccc(C[C@@H]2CCc3cnnn3COC[C@H](c3ccccc3)NC2=O)cc1,1.3,-2,-2,-1.3,i
CCCCC(=O)NC(c1ccc(OC)c(OC)c1)c1ccc2cccnc2c1O (configuration not stated),7.6,5,16,-2.3,i
COc1cc(CN2CC3(CN(C(=O)c4cccnc4)C3)c3c([nH]c4cc(OC)ccc34)[C@H]2CO)cc(OC)c1,-3.6,-1,-3,0.1,i
